Screening results from PubChem BioAssay.
ClpP mod – qHTS Assay for Activators of ClpP; ATP-dependent Clp protease proteolytic subunit (Bacillus subtilis (strain 168)), P80244; purified B. subtilis ClpP, FRET peptide cleavage, 20 min; Potency, µM (highest dose often 57.5 µM), without a hit: top-dose activity change, negative = active; 1.9% of 340,000 active; active = well fitted falling curve with a large enough effect; inconclusive = small, poorly fitted or top-dose-only effect; inactive = no such curve, though single readings can be large or run the other way; note: potency is the fitted concentration of half-maximal effect; the source files actives as falling curves though it sought activators and does not explain the sign; nearly all actives have a fitted effect of over 65% in size; many hits overshoot -100%
Target sequence (P80244 whole entry, looked up): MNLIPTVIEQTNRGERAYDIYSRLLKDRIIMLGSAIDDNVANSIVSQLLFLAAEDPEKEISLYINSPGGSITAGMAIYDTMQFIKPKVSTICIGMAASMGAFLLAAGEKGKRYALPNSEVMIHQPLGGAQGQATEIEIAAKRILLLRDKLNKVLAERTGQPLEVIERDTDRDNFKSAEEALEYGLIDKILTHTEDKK
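Buffer: 100 mM Tris/HCl pH8, 100 mM KCl, 0.05% low protease BSA, 2.5% glycerol, 0.01% Tween-20. ClpP 10 microg/mL final; 20 min RT; delta FRET normalized to ADEP and DMSO controls.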
Sfp PPTase inh – inhibitors of Bacillus subtilis Sfp phosphopantetheinyl transferase | Biochemical Sfp PPTase activity, qHTS | Potency, µM, for inactives: max response, negative = inhibition, actives largely listed as inhibitors | 3.5% of 310,000 active; active = well fitted inhibition curve with a large enough effect; inconclusive = small, poorly fitted or top-dose-only effect, or another doubt; inactive = no such curve, though single readings can be large or run the other way;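 note: the enzyme is Sfp with the accession as filed and its product quenches rhodamine fluorescence; potency is the fitted concentration of half-maximal effect; 0% = enzyme reaction without inhibitor and -100% = no enzyme wells; top concentration of the series not given in the record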
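Step 1, compound plus 15 nM Sfp-PPTase, 15 min, room temperature. Step 2, add rhodamine-CoA (5 uM) and BHQ-2-YbbR (12.5 uM). Step 3, read 525/598 nm fluorescence at 0 and 30 min.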
TRPML1 agonist – activates the human TRPML1 channel; Q9GZU1; TRPML1-expressing cells, Ca2+ dye fluorescence, FDSS; host cell line not named in the record; reference of the full effect not given here; activation, % (test concentration not listed); 0.12% of 410,000 active; AID 624414; in the data active = activation above about 50%; inconclusive = about 30% to 50%; inactive = below about 30%; note: 0% is about no effect; the text of the record puts the active cut at 80%
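Kinetic FDSS Ca2+ read in Tet-induced TRPML1-DL cells (ABD Ca8 dye plus quencher, 45-90 min RT loading): baseline, then compound, then 110 s agonist window; EC80 agonist 54-4 at 4uM final added afterwards for a 110 s antagonist window.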
Menin-MLL FL inh – displaces fluorescein MLL peptide from human menin; Fluorescence polarization, fluorescein-MLL peptide displacement from menin; FP activity change, % at 61.4 µM; 290,000 tested, under 10 active; inconclusive = falling polarisation curve, or a change in total fluorescence; inactive = total fluorescence flat and polarisation flat or rising; no compound was filed as active; the % refers to the polarisation; negative = inhibition;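 note: % of control where 0% means no effect; inhibitors lower the polarisation; unlabelled MLL peptide was the positive control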
TRPV1 potentiator – potentiators of human vanilloid receptor 1 (TRPV1). Q8NER1. TRPV1-expressing cells, Fluo-8 calcium influx, capsaicin EC20 potentiation; host cell line not named in the record; control for the full effect not named in the record. potentiation, % at 8.33 µM. 0.02% of 320,000 active; active means potentiation above 80%; inconclusive means 30% to 80%; inactive means below 30%; note: 0% is about no effect
Target sequence (Q8NER1 whole entry, looked up): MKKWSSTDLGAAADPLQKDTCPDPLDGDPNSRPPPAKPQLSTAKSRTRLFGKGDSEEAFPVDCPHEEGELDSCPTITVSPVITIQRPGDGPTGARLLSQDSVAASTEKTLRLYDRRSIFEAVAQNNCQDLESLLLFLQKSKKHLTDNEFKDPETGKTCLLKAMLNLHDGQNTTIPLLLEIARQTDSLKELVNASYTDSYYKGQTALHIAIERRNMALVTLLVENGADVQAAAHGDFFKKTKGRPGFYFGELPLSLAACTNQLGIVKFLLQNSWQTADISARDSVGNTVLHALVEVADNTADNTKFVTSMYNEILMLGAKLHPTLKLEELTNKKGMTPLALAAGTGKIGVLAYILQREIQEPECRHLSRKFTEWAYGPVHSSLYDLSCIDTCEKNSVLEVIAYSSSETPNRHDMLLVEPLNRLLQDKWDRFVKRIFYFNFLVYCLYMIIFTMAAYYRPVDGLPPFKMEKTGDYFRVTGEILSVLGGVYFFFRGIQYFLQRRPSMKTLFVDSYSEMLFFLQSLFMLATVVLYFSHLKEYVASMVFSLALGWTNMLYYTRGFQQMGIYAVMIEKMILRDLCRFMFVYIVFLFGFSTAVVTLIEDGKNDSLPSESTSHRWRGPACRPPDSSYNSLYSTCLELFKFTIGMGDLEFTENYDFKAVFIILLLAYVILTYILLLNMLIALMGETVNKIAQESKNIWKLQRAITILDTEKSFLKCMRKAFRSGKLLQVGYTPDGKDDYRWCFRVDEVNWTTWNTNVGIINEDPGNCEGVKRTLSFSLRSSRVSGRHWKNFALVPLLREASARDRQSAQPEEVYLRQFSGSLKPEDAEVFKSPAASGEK
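Fluo-8 calcium influx in TRPV1-expressing cells, kinetic read (ex 480/em 520 nm). Compound added and read 3 min for agonist activity, followed by capsaicin at EC20 final and 2 min further read for enhancement.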
TRPML1 blocker – blocks the human TRPML1 channel; AID 624415; 0.02% of 390,000 active; activity change, negative = inhibition, % (test concentration not listed); Q9GZU1; TRPML1-inducible cells, Ca2+ dye fluorescence, FDSS; active compounds read low; inhibition of EC80 agonist-evoked calcium signal; in the data active means activity change below about -50%; inconclusive means about -30% to -50%; inactive means above about -30%;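 note: stimulus is agonist 54-4 at its EC80 concentration; % is set by controls: 0 for no effect and ±100 for the full control effect; compound concentration not given in the record; the text of the record puts the active cut at -80%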
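TRPML1-DL cells, Tet-induced overnight (~16 h, 37 °C) at 1,500 cells/well, were loaded with Ca8 no-wash dye plus quencher for 45-90 min at room temperature. Compounds were pinned during FDSS kinetic reading; agonist 54-4 at EC80 (4 uM final) then added.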
PINK1 modulator – PINK1 expression modulation | PINK1 immunofluorescence, high-content cytometry, 24 h | Potency, µM (series often up to 76.6 µM), without a hit: at the top dose activation (PINK1 increase), actives largely listed as activators | 0.2% of 410,000 active | AID 624263; active = well fitted activation curve with a large enough effect; inconclusive = small, poorly fitted or top-dose-only effect; inactive = flat fitted curve, though single readings scatter; cell line not stated here;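 note: potency is the fitted concentration of half-maximal effect; % of control where 0% means no effect; nearly all actives have a fitted effect of over 65% in size; a mitochondrial uncoupler was the plate control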
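Stable cell line, 250 cells/well, 12 h attachment; compounds pinned at 5 concentrations, 24 h; CCCP control. Fixed with nuclear dye, primary antibodies 12 h at 10 degrees C, secondary plus cell stain; laser-scanning cytometer read.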
An asterisk follows results filed as active; ? = inconclusive; nt = no result given; [ ] = remark or other dose. Hits appear at their usual frequency; any-hit rate near 4.4%.

SMILES	ClpP mod	Sfp PPTase inh	TRPML1 agonist	Menin-MLL FL inh	TRPV1 potentiator	TRPML1 blocker	PINK1 modulator
c1ccc(CCNc2ccnc3cc4ccccc4cc23)cc1	nt	?	-0.5	-21	7	16	-1.9%
Cc1ccc(C)c(OCCCCn2ccnc2)c1	-0.8%	7%	0.8	0.8	-4	-8	0.9%[38.3 µM]
COC(=O)CNc1cc(S(=O)(=O)N2CCCCC2)ccc1Oc1ccc(C(=O)OC)cc1	nt	8%	3.2	-8.1	?	22	1.5%
C=CCn1c(SC(C)CC)nc(O)cc1=O (centres undefined)	-2.6%	9%	?	2.9	-11	5	-0.6%
COc1ccc(C)cc1-n1nnnc1SCc1csc(C)n1	-1.2%	-1%	0.2	-0.7	-4	8	-3.5%
CN(Cc1cnn(C)c1)C(=O)c1sc2cccc(Cl)c2c1Cl	-1.4%	-14%	0.1	-1.3	3	0	-1.5%
Cc1nnc(NC(=O)CC23CC4CC(CC(C4)C2)C3)s1	-0.2%	-3%	1.1	-0.1	-2	20	5.7%
CN1CCN(CC(O)COC(c2ccccc2)c2ccccc2)CC1 (centres undefined)	nt	13%	0.9	-1.2	-7	-14	-0.6%
CCOc1ccc2ccc(OCC)c(/C=N/n3cnnc3)c2c1	-18%	3%	-1.6	-0.9	?	-26	-0.4%
O=C(C1CC1)N1CCc2cc(Br)cc(S(=O)(=O)NCc3ccccn3)c21	1.2%	-1%	-0.3	3.6	-8	6	2.4%
O=S(=O)(c1ccccc1)N1CCN(CC(O)COc2ccc3c(c2)CCC3)CC1 (centres undefined)	-1.5%	10%	1.2	3.6	-2	-9	-6.2%[38.3 µM]
O=C(CS(=O)(=O)c1c[nH]c2ccccc12)N1CCCc2ccccc21	-1.9%	5%	1.0	-0.3	19	-6	-0.8%
Cc1cc(C=O)c(C)n1-c1ccc(N2CCCCC2)c([N+](=O)[O-])c1	0.5%	18%	2.4	-4.2	4	17	0.5%
CCOc1ccc(NS(=O)(=O)c2cc(NC(=O)CCS(=O)(=O)c3ccc(C)cc3)ccc2OC)cc1	-1.6%	22%	0.4	2.6	-31	-7	4.0%
Cc1cc(C(=S)N2CCOCC2)c(C)n1-c1ccc(F)cc1	1.1%	?	5.0	4.1	-10	6	-1.7%
O=C(COC(=O)CNC(=O)c1ccc(Cl)cc1Cl)NC(=O)NC1CCCCC1	3.6%	nt	-0.9	nt	6	29	2.3%
O=S(=O)(c1ccc(C2CCCCC2)cc1)N1CCN(c2ncccn2)CC1	-2.5%	11%	1.1	-1.7	-7	-2	5.1%[38.3 µM]
CCOC(=O)N1CCC(NS(=O)(=O)c2ccc(C)c(Cl)c2)CC1	nt	5%	1.0	1.9	-31	0	-0.1%
CCOc1ccccc1NC(=O)CSc1ccc(-c2sc(C)nc2C)nn1	1.9%	-7%	1.9	nt	-4	15	0.8%
Cc1cccc(-c2nc(C#N)c(NC3CCCCC3)o2)c1	?	?	0.2	5.0	-14	-9	4.8%
Cc1cc([N+](=O)[O-])nn1Cc1ccc(C(=O)N/N=C/c2ccc(F)cc2)cc1	nt	14%	1.0	0.3	28	1	-0.4%
COc1ccc(NC(=O)COc2cccc3c2CCN(Cc2cccnc2)C3=O)c(OC)c1	0.4%	5%	1.9	nt	?	-1	3.6%
Cc1nn(-c2cccc(Cl)c2)c(Cl)c1/C=N/NC(=O)c1cccs1	1.0%	18%	-0.5	8.9	26	47	4.8%
CSc1ccc(CNC(=O)C2CCCN(S(=O)(=O)N(C)c3ccc(F)cc3)C2)cc1 (centres undefined)	0.1%	nt	0.1	nt	nt	5	2.5%
CC(=O)c1ccc(C(=O)N(C)C2CCCN(Cc3ccccc3F)C2)s1 (centres undefined)	nt	12%	0.2	0.2	3	15	-1.7%
CN(CCC#N)C(=S)Nc1ccc(S(=O)(=O)N2CCOCC2)cc1	2.0%	3%	1.9	-0.3	-2	4	-0.9%
CCOC(=O)C1=C(CN2CCN(C)CC2)NC(=O)NC1c1ccc(F)cc1 (centres undefined)	-1.6%	nt	1.8	nt	nt	-2	0.4%
CCN(CC)CCCN1C(=O)CSC1c1ccc2c(c1)OCO2 (centres undefined)	0.8%	?	0.1	2.8	?	-18	0.3%
Cc1cc(=O)oc2c3c(cc(OCC(=O)NCc4ccccc4)c12)OC(C)(C)CC3	5.0%	-2%	nt	-3.9	-5	nt	1.1%
COc1ccccc1N1CCN(C(=O)c2ccc(Cn3c(=O)[nH]c4ccsc4c3=O)cc2)CC1	-1.0%	12%	0.3	6.5	-11	-13	2.0%
CSc1ncccc1C(=O)NCCc1ccc(Cl)cc1	nt	-17%	0.4	-4.0	-12	17	-0.2%
CC(=O)N1CCN(C(=O)CCNS(=O)(=O)c2ccc(Br)cc2)CC1	1.4%	nt	-0.2	nt	-11	1	-0.5%
CC(C)Oc1cccc(-c2cc(C(=O)N3CCN(S(C)(=O)=O)CC3)c3ccccc3n2)c1	-3.0%	-6%	-0.4	8.2	7	0	-0.9%
Cc1ccnc(NC(=O)c2cccc(NC(=O)c3ccccc3C)c2)c1	-2.4%	1%	nt	-1.3	7	nt	0.5%
CCCCNC(=O)C12CCC(C)(C(=O)C1Br)C2(C)C (centres undefined)	-27%	5%	1.0	3.7	1	-25	2.2%
CCOC(=O)C1=C(COC(=O)CCOc2ccccc2)NC(=O)NC1C (centres undefined)	1.3%	nt	1.2	nt	-7	-7	1.6%
Cc1cc(NC(=O)CSCC(=O)OCc2nnc(-c3ccccc3)o2)no1	2.8%	6%	1.6	nt	8	-12	-0.5%
CC(=O)c1ccc(NC(=O)C2CCN(S(=O)(=O)c3cccc4cccnc34)CC2)cc1	1.9%	8%	0.7	3.0	-2	8	1.8%
COc1cc(NC(=O)C2CCCCC2)c(OC)cc1NC(=O)c1ccccc1	nt	10%	0.3	-6.1	-4	-1	16%
C/C(CC(=O)Nc1ccc2c(c1)OCCO2)=N\NC(=O)COc1ccccc1C	nt	5%	0.3	-1.2	16	-3	0.7%
COc1ccccc1C(=O)C1CCCN(Cc2cn[nH]c2C2CCCCC2)C1 (centres undefined)	nt	14%	-0.4	-4.3	4	-6	3.2%
Cc1ccc(Cl)cc1N1CCN(C(=O)c2ccc(CS(=O)Cc3ccc(Cl)cc3)o2)CC1 (centres undefined)	-0.7%	-6%	-0.1	nt	11	-5	6.7%
CC(C(=O)N1CCN(c2ccc(Cl)cc2)CC1)c1ncc(C(F)(F)F)cc1Cl (centres undefined)	-1.6%	8%	-0.4	0.6	16	2	-5.7%[38.3 µM]
CCOC(=O)C1CCCN(CC(=O)Nc2nccs2)C1 (centres undefined)	-4.4%	4%	-0.4	-7.3	-3	-18	-1.0%
CN1CC(=O)N(CC(=O)NCc2ccc3c(c2)OCO3)C1=O	-0.6%	23%	-0.6	3.8	-25	-3	-0.7%

By substructure: those above with a nitro group on carbon (2)
SMILES	ClpP mod	Sfp PPTase inh	TRPML1 agonist	Menin-MLL FL inh	TRPV1 potentiator	TRPML1 blocker	PINK1 modulator
Cc1cc(C=O)c(C)n1-c1ccc(N2CCCCC2)c([N+](=O)[O-])c1	0.5%	18%	2.4	-4.2	4	17	0.5%
Cc1cc([N+](=O)[O-])nn1Cc1ccc(C(=O)N/N=C/c2ccc(F)cc2)cc1	nt	14%	1.0	0.3	28	1	-0.4%

Filtered by structure, the compounds so far with a cyano group
SMILES	ClpP mod	Sfp PPTase inh	TRPML1 agonist	Menin-MLL FL inh	TRPV1 potentiator	TRPML1 blocker	PINK1 modulator
Cc1cccc(-c2nc(C#N)c(NC3CCCCC3)o2)c1	?	?	0.2	5.0	-14	-9	4.8%
CN(CCC#N)C(=S)Nc1ccc(S(=O)(=O)N2CCOCC2)cc1	2.0%	3%	1.9	-0.3	-2	4	-0.9%

Other results follow:
SMILES	ClpP mod	Sfp PPTase inh	TRPML1 agonist	Menin-MLL FL inh	TRPV1 potentiator	TRPML1 blocker	PINK1 modulator
CC(=O)c1c(C)n(CC(=O)NCc2ccco2)c2ccccc12	-1.6%	21%	-0.3	0.8	1	-3	1.9%
O=C(CSc1cccc2cccnc12)N/N=C/c1ccc(O)cc1	?	18%	2.0	1.5	5	-21	0.1%
O=C(NCc1ccc(F)cc1)c1ccc2c(c1)N(Cc1ccc(F)cc1Cl)C(=O)CS2	-0.5%	nt	1.7	nt	nt	2	14%
COc1ccc(CNC(=O)C2CCCN(S(=O)(=O)c3ccccc3)C2)cc1 (centres undefined)	2.9%	9%	-0.4	-2.3	-5	-2	-1.2%
O=C(CCC(=O)N(CC(=O)NC1CCCC1)Cc1ccc(F)cc1)Nc1nccs1	nt	15%	0.9	-0.5	2	12	0.2%
Cc1nnc(SCC(=O)N2CCCC(C(=O)c3ccc(Cl)cc3)C2)o1 (centres undefined)	1.3%	-20%	0.4	-1.2	-2	-16	-1.4%
CCn1nc(C(=O)OC(C(=O)c2c[nH]c3ccccc23)c2ccccc2)c2ccccc2c1=O (centres undefined)	-9.2%	15%	1.4	2.7	15	-4	4.3%[38.3 µM]
COc1cc(O)c(CCC(=O)c2ccc(OC)c(OC)c2)c(OC)c1	-1.0%	-2%	2.4	0.1	1	29	1.1%
CN1CCN(c2ccc(S(=O)(=O)N3CCOCC3)cc2NC(=O)CSCc2ccccc2)CC1	-0.2%	nt	0.0	nt	nt	-1	-0.9%
CN(C)C(=O)CSc1nnc([C@H](Cc2ccccc2)NC(=O)OC(C)(C)C)o1	-2.2%	-5%	-0.4	0.6	-3	-4	1.0%
Cc1ccc(C)c(NC(=O)C(Sc2cccc[n+]2[O-])c2ccccc2)c1 (centres undefined)	-7.5%	-11%	0.2	5.6	9	-1	0.6%
CCC(C)NC(=O)CSc1nc2n[nH]c(C)c2c(=N)n1-c1ccc(OC)cc1 (centres undefined)	9.6%	-3%	2.2	6.8	0	4	25%
COc1cccc(NC(=O)Nc2ccc3c(c2)CCC3)c1	-3.4%	1%	1.4	nt	-25	14	1.5%
Oc1ccc(C[C@H]2CNC(=S)N2CC2CCCN2C[C@H](Cc2ccc(O)cc2)N2C[C@H](Cc3ccccc3)N(CC3CCCCC3)C2=S)cc1 (some centres undefined)	-0.6%	nt	-0.7	nt	nt	5	3.4%
